miR-21 FLuc: qHTS Assay for Modulators of miRNAs and/orActivators of miR-21. HeLa miR-21 FLuc reporter, luciferase, 48 h. Potency, µM (highest dose often 38.3 µM), inactives show at the highest dose reporter change, positive = more light. 340,000 tested, under 10 active; active = well fitted rising curve with a large enough effect; inconclusive = small, poorly fitted or top-dose-only effect; inactive = no such curve, though single readings can be large or run the other way;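 further: % of control where 0% means no effect; miR-21 action dims this reporter so a rising signal means less miR-21 action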
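HeLa miR-21-FLuc reporter line, endogenous miR-21; 2000 cells/well in DMEM/10% FBS; compound titration up to ~40uM final, 48 h, 37 degree Celsius; luciferase detection reagent, 15 min lysis, CCD luminescence.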
Rango release inh: qHTS Assay for Inhibitors of RanGTP induced Rango (Ran-regulated importin-beta cargo) - Importin beta complex dissociation; Biochemical FRET Rango-importin beta, RanGTP-induced dissociation; Potency, µM (top dose mostly 46.1 µM), without a hit: at the top dose activity change, negative = inhibition; hit rate 0.071% among 340,000; AID 540253, 2011; active means falling FRET ratio curve, often poorly fitted, with flat reads before Ran was added; inconclusive means other falling curves, or compound fluorescence or quenching; inactive means flat or rising ratio curve;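 further: potency means the concentration at half of the fitted maximal effect; % of control where 0% means no effect; nearly all actives have a fitted effect of over 45% in size; -100% = wells without RanGTP and RCC1; the record marks most hits as doubtful in a second field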
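FRET read at 45 min, room temperature: inhibitors block the CFP/YFP signal rise when RanGTP (0.6 uM Ran, 2 mM GTP, 0.2 uM RCC1) frees Rango (0.1 uM) from importin beta (0.25 uM). Pre-read after 5 min compound exposure flags interference.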
GLA inh pH 4.5: qHTS Assay for Inhibitors of Human alpha-Galactosidase at pH 4.5; AID 1467, 2008; 230,000 tested, under 10 active; purified enzyme, 4-MU-alpha-Gal fluorescence, pH 4.5; activity change, negative = inhibition, % at 105 µM; Alpha-galactosidase A (Homo sapiens), P06280; inconclusive = small, poorly fitted or top-dose-only inhibition, or a rising curve; inactive = flat fitted curve, though single readings scatter; no compound was filed as active;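 further: 0% = full activity with enzyme and -100% = basal without enzyme; dose as in the result columns while the protocol names 77 µM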
Target sequence (P06280 whole entry, looked up): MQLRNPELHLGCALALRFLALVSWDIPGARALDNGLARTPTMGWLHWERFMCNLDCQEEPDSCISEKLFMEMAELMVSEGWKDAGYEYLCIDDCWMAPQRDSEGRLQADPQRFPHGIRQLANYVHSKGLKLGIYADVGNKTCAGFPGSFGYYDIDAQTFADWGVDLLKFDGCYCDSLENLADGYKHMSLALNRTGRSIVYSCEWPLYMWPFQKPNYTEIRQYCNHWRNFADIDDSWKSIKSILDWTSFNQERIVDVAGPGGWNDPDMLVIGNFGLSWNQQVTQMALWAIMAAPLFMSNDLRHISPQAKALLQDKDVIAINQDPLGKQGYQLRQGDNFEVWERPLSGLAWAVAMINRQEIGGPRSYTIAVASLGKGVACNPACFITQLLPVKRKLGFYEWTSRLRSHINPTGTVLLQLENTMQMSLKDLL
Rango complex inh: qHTS Assay for Inhibitors of Rango (Ran-regulated importin-beta cargo) - Importin beta complex formation | Importin subunit beta-1 (Homo sapiens), Q14974 | Rango CFP/YFP FRET sensor + importin beta, 45 min | Potency, µM (series often up to 92.2 µM), inactives show at the top dose inhibition of complex formation | hit rate 0.031% among 340,000; active = rising FRET ratio curve, often small or poorly fitted; inconclusive = mostly compound fluorescence or quenching in the first reads; inactive = flat curves in all reads;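 further: potency means the concentration at half of the fitted maximal effect; 0% = DMSO wells and 100% = buffer wells lacking importin beta; nearly all actives have a fitted effect of over 15% in size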
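Inhibition scored from the CFP 486 nm/YFP 530 nm FRET ratio 45 min after adding 0.125 microM importin beta to 50 nM Rango biosensor preincubated 5 min with compound (room temperature, PBS with DTT, Tween-20, BSA). No-importin wells as positive control.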
An asterisk follows results filed as active; ? = inconclusive; . = no result given; & = joins results of further samples.

Under each structure – GLA inh pH 4.5 | Rango release inh | miR-21 FLuc | Rango complex inh
CC1CCc2cc(F)ccc2N1C(=O)CCC(=O)O (stereo not drawn)
 : 3 | -3% | -9% | -2.6%
CC1CCN(C(=O)CCN2C(=O)C3C4C=CC(C4)C3C2=O)CC1 (stereo not drawn)
 : . | ? | -3% | -1.7%
COc1ccc2nccc(C(N)=O)c2c1
 : -7 | 15% | 1% | 3.7%
COc1ccc(C(=O)NCc2oc(-c3ccccc3)cc2C(=O)O)cc1
 : -5 | -3% | -5% | -3.3%
COc1ccc(CCNC(=O)C2CCCN(S(=O)(=O)c3cnc[nH]3)C2)cc1OC (stereo not drawn)
 : 4 | 13% | 0% | -2.1%
CC(C)C[C@@H](CO)N1CCN(CC(C)C)CCC1=O
 : . | 28% | 1% | -0.1%
O=C(O)CCC(=O)N1N=C(c2ccc(Br)cc2)CC1c1cccs1 (stereo not drawn)
 : -5 | 0% | -10% | -1.1%
CCCn1c(SCC(=O)Nc2ccc3c(c2)OCO3)n[nH]c1=O
 : . | 1% | . | -0.9%
CCN(CC(=O)NC1CCS(=O)(=O)C1)S(=O)(=O)c1ccccc1Cl (stereo not drawn)
 : . | 0% | 1% | 1.7%
COc1ccc(CCn2c(NCc3ccco3)nc3c2c(=O)[nH]c(=O)n3C)cc1
 : -1 | 18% | 1% | -0.6%
CCc1ccccc1NC(=O)Nc1c(C)n(C)n(-c2ccccc2)c1=O
 : . | 18% | 2%&1% | 0.8%
Cc1ccc(C(=O)NCCc2nnc3ccc(SCC(=O)Nc4c(C)cc(C)cc4C)nn23)cc1
 : 0 | 0% | -11% | 0.3%
CCN(CC)S(=O)(=O)c1cccc(-c2n[nH]c(=S)n2C(C)COC)c1 (stereo not drawn)
 : 3 | 24% | -6% | 3.5%
Cc1ccc(C=C2C(=O)c3ccccc3C2=O)o1
 : -11 | 12% | -42% | -2.3%
CC(=O)c1cccc(NC(=O)Cn2cnc(S(=O)(=O)N3CCCCC3)c2)c1
 : . | 1% | -1% | -1.0%
Cc1c(-n2cc(C(=O)O)c(=O)c3cc(F)c(N4CCCC(O)C4)c(F)c32)c(=O)n(-c2ccccc2)n1C (stereo not drawn)
 : -5 | -4% | 3% | 3.2%
COc1ccc(CCNC(=O)[C@@H](NC(=O)N2CCn3c2nc2ccccc23)C(C)C)cc1OC
 : . | 5% | 4% | -3.1%
CCC(Sc1nc2c(c(=O)[nH]1)CCC2)C(=O)Nc1cccc(OC)c1 (stereo not drawn)
 : 1 | 16% | -3% | -0.8%
CC(=O)c1ccc(NC(=O)c2cc(=O)[nH]c3ccccc23)cc1
 : . | -1% | -10% | -1.2%
CCSc1nc(O)cc(=O)n1-c1ccc(OC)cc1
 : 4 | -8% | -7% | -0.3%
CCCCN1C(=O)C(=O)NC[C@@H]1CCCCN
 : . | 6% | . | 2.5%
CCC1C(c2ccccc2)=CCC(C(=O)O)C1C (stereo not drawn)
 : . | 2% | . | 3.3%
CCCOc1ccc(CN(CCO)CCO)cc1C(=O)OC
 : 3 | 19% | -3% | -2.4%
COC(=O)NCc1ccc(CNC(=O)OC)cc1
 : -10 | ? | -1% | 1.4%
CC(C)c1cc(C(=O)N/N=C/c2c[nH]c3ccccc23)n[nH]1
 : -4 | 33% | -12% | -1.4%
O=C(CCn1c(=O)[nH]c2ccccc2c1=O)N1CCN(c2ccc(Cl)cc2)CC1
 : -3 | 6% | -5% | -2.4%
O=C(OCC(=O)N1CCc2ccccc2C1)c1ccc(Cl)c([N+](=O)[O-])c1
 : . | 34% | . | -3.4%
CC(C)(C)CC(=O)Nc1cccc2c1CCCC2
 : 2 | -1% | -3% | -0.4%
CCN(CC)c1ccc(/C=N/Nc2ccc(C)cc2)c(O)c1
 : -5 | -13% | -21% | 0.5%
COc1ccc(Cl)cc1NC(=O)CN(C)C(=O)c1ccc(-n2cncn2)cc1
 : . | 5% | . | -2.2%

Among those listed so far, 2 contain two or more sulfur atoms:
Under each structure – GLA inh pH 4.5 | Rango release inh | miR-21 FLuc | Rango complex inh
CCN(CC(=O)NC1CCS(=O)(=O)C1)S(=O)(=O)c1ccccc1Cl (stereo not drawn)
 : . | 0% | 1% | 1.7%
CCN(CC)S(=O)(=O)c1cccc(-c2n[nH]c(=S)n2C(C)COC)c1 (stereo not drawn)
 : 3 | 24% | -6% | 3.5%

Next section.
Under each structure – GLA inh pH 4.5 | Rango release inh | miR-21 FLuc | Rango complex inh
CC(CC(=O)NCCc1ccc(F)cc1)c1ccccc1 (stereo not drawn)
 : . | -13% | -30% | -1.9%
COc1ccccc1NC(=S)NNC(=O)c1ccc(O)cc1
 : 16 | 0% | -57% | 1.2%
Cc1ccc(C)c(N(CC(=O)NN=C2CCCCCCC2)S(C)(=O)=O)c1
 : 11 | -8% | -2% | -0.4%
CCN=C1SC(CC(=O)Nc2ccc(C(F)(F)F)cc2)C(=O)N1CC (stereo not drawn)
 : -1 | -7% | 3% | -0.4%
COc1ccc(OC)c2c(C)cc(N3CCCCCC3)nc12
 : . | -1% | 22% | 0.1%
C/C(CC(=O)Nc1ccc2c(c1)OCCO2)=N\NC(=O)Cc1ccccc1
 : . | 7% | -7% | 1.3%
O=C(c1ccc(-c2ccccc2Cl)o1)N1CCN(S(=O)(=O)c2cccs2)CC1
 : . | 9% | . | 2.3%
CCc1nc(SCC(=O)Nc2ccc([N+](=O)[O-])cc2)n[nH]1
 : . | -2% | 1% | -1.5%
C=C(C)Cc1c(C)c(C#N)c2[nH]c3ccccc3n2c1=O
 : . | 32% | 4% | -1.7%
O=C(C1CCCN(S(=O)(=O)c2ccc(Br)s2)C1)N1CCCCCC1 (stereo not drawn)
 : 0 | 1% | 3% | 0.2%
Cc1cccc(-c2noc(-c3ccc(F)cc3)n2)c1
 : 5 | 2% | -54% | 3.2%
CC[C@]12c3[nH]c4cc(-c5ccco5)ccc4c3CCN1C(=O)[C@@H](CC(=O)NCCc1ccccn1)C[C@@H]2C(=O)N1CCN(C(=O)c2ccco2)CC1
 : . | -19% | . | ?
COc1ccccc1N1CCN(S(=O)(=O)CCNC(=O)c2ccccc2Br)CC1
 : . | -10% | 4% | -1.1%
c1ccc(Cn2nnnc2-c2ccco2)cc1
 : -3 | -14% | -18% | 0.1%
Nc1c(-c2ccccc2)c(CSc2nc3ccccc3[nH]2)nn1-c1ccc(C(=O)O)cc1
 : 3 | -20% | 0% | 3.3%

Eleven compounds already listed, ordered by length of the SMILES, rising:
Under each structure – GLA inh pH 4.5 | Rango release inh | miR-21 FLuc | Rango complex inh
c1ccc(Cn2nnnc2-c2ccco2)cc1
 : -3 | -14% | -18% | 0.1%
CC(CC(=O)NCCc1ccc(F)cc1)c1ccccc1 (stereo not drawn)
 : . | -13% | -30% | -1.9%
Cc1cccc(-c2noc(-c3ccc(F)cc3)n2)c1
 : 5 | 2% | -54% | 3.2%
COc1ccccc1NC(=S)NNC(=O)c1ccc(O)cc1
 : 16 | 0% | -57% | 1.2%
C=C(C)Cc1c(C)c(C#N)c2[nH]c3ccccc3n2c1=O
 : . | 32% | 4% | -1.7%
CCc1nc(SCC(=O)Nc2ccc([N+](=O)[O-])cc2)n[nH]1
 : . | -2% | 1% | -1.5%
Cc1ccc(C)c(N(CC(=O)NN=C2CCCCCCC2)S(C)(=O)=O)c1
 : 11 | -8% | -2% | -0.4%
COc1ccccc1N1CCN(S(=O)(=O)CCNC(=O)c2ccccc2Br)CC1
 : . | -10% | 4% | -1.1%
O=C(c1ccc(-c2ccccc2Cl)o1)N1CCN(S(=O)(=O)c2cccs2)CC1
 : . | 9% | . | 2.3%
Nc1c(-c2ccccc2)c(CSc2nc3ccccc3[nH]2)nn1-c1ccc(C(=O)O)cc1
 : 3 | -20% | 0% | 3.3%
CC[C@]12c3[nH]c4cc(-c5ccco5)ccc4c3CCN1C(=O)[C@@H](CC(=O)NCCc1ccccn1)C[C@@H]2C(=O)N1CCN(C(=O)c2ccco2)CC1
 : . | -19% | . | ?

(further entries)
Under each structure – GLA inh pH 4.5 | Rango release inh | miR-21 FLuc | Rango complex inh
Cc1cccc(C)c1NC(=S)N(C)CCc1ccccn1
 : 4 | 10% | -6% | -1.1%
O=C1CN(c2ccc(Cl)cc2)C2(CCCCC2)S1
 : 4 | -15% | -5% | -0.9%
COc1cc(OC)cc(C(=O)Nc2ccccc2C(=O)NC2CC2)c1
 : . | -1% | . | -1.1%
Cc1cc(S(=O)(=O)NCC(C)C)ccc1OCC(=O)NCC1CCCO1 (stereo not drawn)
 : -5 | -7% | -4% | -2.2%
COc1ccccc1C(=O)Nc1ccnn1C1CCN(C(=O)c2ccoc2C)CC1
 : . | 18% | -9% | -0.5%
Cc1ccccc1N1CC(C(=O)N2CCc3ccccc32)CC1=O (stereo not drawn)
 : . | 7% | . | -0.8%
Cc1ccc(C)c(N(C)C(=O)c2coc(=O)c3ccccc23)c1
 : -4 | -2% | 12% | -1.7%
Cc1noc(C)c1CSc1nnc(-c2ccccc2F)n1CCc1ccccc1
 : 5 | 1% | 0% | -0.7%
NC(CC(=O)O)c1ccc(Br)cc1 (stereo not drawn)
 : -10 | 21% | 2% | 2.3%
Cc1ccc(OCC(=O)Nc2nc(-c3ccccn3)cs2)c(C)c1
 : . | -10% | . | -0.6%
OCC[C@H]1C[C@H](O)[C@@H](O)[C@]2(CCCCO2)O1
 : . | 0% | . | -1.1%
Cc1cccc(N2CCN(C(=O)COc3cc4oc(=O)cc(C)c4cc3Cl)CC2)c1C
 : . | 2% | 0% | -4.1%
CC1CCN(c2oc(-c3ccc(F)cc3)nc2C#N)CC1
 : . | 24% | -49% | 2.7%
Nc1[nH]nc2nc3ccccc3cc12
 : -1 | ? | -21% | -3.1%
O=S(=O)(c1cc(F)ccc1F)N1CCC2(CC1)OCCN2S(=O)(=O)c1ccccc1
 : . | 5% | . | 0.3%
CC(Sc1nnc(-c2ccco2)n1C)C(=O)NC1CCCC1 (stereo not drawn)
 : . | 22% | . | -0.9%
CCOC(=O)CC(=O)CSc1nnc(Cn2c(=O)sc3ccccc32)n1C
 : 0 | -22% | -4% | ?
CC(C)CCOc1ccc(C2CC(=O)N(C)C2=O)cc1 (stereo not drawn)
 : -5 | -7% | -32% | 0.9%
COC(=O)c1nn(-c2ccc(C)cc2)c2nnc(Cc3ccccc3)c(=O)n12
 : -7 | -4% | -12% | -1.8%
O=C1C2C3c4ccccc4C(c4ccccc43)C2C(=O)N1c1cccc2cccnc12 (stereo not drawn)
 : -1 | -4% | 11% | -0.5%
CCCOc1ccc(C2/C(=C(\O)c3c(C)[nH]c(C(=O)OC)c3C)C(=O)C(=O)N2CCN(C)C)cc1 (stereo not drawn)
 : -10 | -3% | -6% | 5.8%
CN1CCN(C(=O)c2ccc3c(c2)NC(=O)C(N2CCOCC2)S3)CC1 (stereo not drawn)
 : -1 | 12% | -3% | -0.6%
O=C(O)CNc1nc(-c2ccccc2)c2cc([N+](=O)[O-])ccc2n1
 : -3 | -21% | -21% | 0.0%
COc1cc(C(=O)NNC(=O)/C=C/c2ccccc2)cc(OC)c1OC
 : . | -1% | . | 4.1%
COC(=O)c1cn(C(=O)c2ccccc2Cl)c2ccccc12
 : -4 | 12% | -4% | 1.6%
COc1cc([N+](=O)[O-])ccc1-c1ccc(/C=C2\C(=O)ON=C2c2ccccc2)o1
 : . | -20% | . | 3.8%
CC(=O)c1c(C)nc(-c2ccc(OCC(=O)Nc3ccccc3)cc2)n1O
 : -2 | -2% | 3% | 0.8%
CN(C)S(=O)(=O)N1CCN(c2cc(Cl)ccc2Cl)CC1
 : -21 | -15% | -4% | -0.3%
CCC(N)C12CC3CC(CC(O)(C3)C1)C2 (stereo not drawn)
 : -14 | 6% | -13% | 0.4%
CCC(C)NC(=O)CNC(=O)Cn1c(C)cc2ccccc2c1=O (stereo not drawn)
 : -11 | -7% | -2% | -0.6%
COc1ccc(/C=C/C(=O)NC(=S)NNC(=O)Cc2cccs2)cc1OC
 : 4 | -15% | -4% | -4.7%

Source: PubChem (National Center for Advancing Translational Sciences (NCATS))

An excerpt; count on the stated rates, not on these rows.
